# rRNA inh HTS: inhibits bacterial ribosomal RNA function over humanized ribosomes. GFP signal change (wild-type ribosome), % (test concentration not listed). E. coli WT GFP vs humanized-ribosome RFP mutants, fluorescence, 24 h; active compounds read low; DMSO median 0, no signal -100. hit rate 1.6% among 350,000;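 active = significant combined selectivity score with lowered wild-type GFP, culture density cut under 30%, mutant RFP and density less affected; inactive = any of these conditions unmet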; also: one replicate is shown; some compounds called inactive have numbers as strong as hits
# AF4-AF9 inh: MLL-AF4/AF9 protein interaction inhibition; inhibition, % at 10 µM; hit rate 0.47% among 350,000; AlphaScreen, biotin-AF4 peptide binding to FLAG-AF9; P42568;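 active = every replicate reaching a set inhibition limit, whatever the replicate mean, cut at about 25% in these data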;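 also: 0% = plate neutral control median and 100% = total signal loss; the record names both 10 and 1 µM as test concentration; the first replicate is given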
# Target sequence (P42568 whole entry, looked up): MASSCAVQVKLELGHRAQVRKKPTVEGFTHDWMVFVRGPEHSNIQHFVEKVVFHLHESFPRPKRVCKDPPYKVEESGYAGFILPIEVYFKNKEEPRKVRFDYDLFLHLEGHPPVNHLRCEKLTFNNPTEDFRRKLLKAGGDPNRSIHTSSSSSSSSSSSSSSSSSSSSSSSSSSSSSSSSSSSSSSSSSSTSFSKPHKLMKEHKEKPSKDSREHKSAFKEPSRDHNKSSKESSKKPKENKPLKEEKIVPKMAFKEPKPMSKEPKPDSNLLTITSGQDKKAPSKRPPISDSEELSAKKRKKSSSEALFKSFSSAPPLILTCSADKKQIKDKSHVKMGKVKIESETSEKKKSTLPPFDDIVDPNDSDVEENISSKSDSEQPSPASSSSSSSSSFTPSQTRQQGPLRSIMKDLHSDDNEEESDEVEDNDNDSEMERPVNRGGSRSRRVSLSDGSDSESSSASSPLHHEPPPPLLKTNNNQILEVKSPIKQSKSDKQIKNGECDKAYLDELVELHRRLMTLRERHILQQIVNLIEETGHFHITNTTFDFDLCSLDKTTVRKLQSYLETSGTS
# rRNA inh HTS OD600: also measured in rRNA inh HTS; calls as there; OD600 change, %; measured here: OD600 growth;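 optical density of the mix in the first replicate; 0 = DMSO median and -100 = no signal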
# rRNA inh HTS RFP: recorded beside rRNA inh HTS, whose call it bears; RFP signal change, %; measured here: RFP humanized mutant strains;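 first replicate; 0 = DMSO median and -100 = no signal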
# * hit, by the source's call. Only part of the results is shown (hit frequency here may not be typical).
1) O=C(NCc1ccccc1)[C@H]1[C@H](CO)[C@H]2Cn3c(cccc3=O)[C@@H]1N2C(=O)c1cnccn1
2) O=C(Nc1ccccc1)N1C[C@@H]2N[C@H](C1)C2c1ccc(-c2cccnc2)cc1 (stereo partly specified)
3) CN(C[C@H]1[C@@H](c2ccccc2)[C@@H](CO)N1C(=O)C1CC1)C(=O)c1ccncc1
4) COc1ccc(-c2ccc([C@H]3[C@H](CO)N4C(=O)CN(C(=O)c5cccnc5)C[C@@H]34)cc2)cc1
5) CO[C@H]1CN(C)C(=O)c2cc(NC(=O)c3cnccn3)ccc2OC[C@@H](C)N(C(=O)C2CC2)C[C@H]1C

assay / entry | 1 | 2 | 3 | 4 | 5
rRNA inh HTS | -2 | 2 | 1 | 1 | 2
rRNA inh HTS OD600 | 15 | -5 | -4 | 0 | 4
AF4-AF9 inh | -23 | -4.8 | 1.7 | -2.7 | -1.2
rRNA inh HTS RFP | 0.0 | 0.0 | -1.4 | -0.5 | 1.7

6) CN(C)CC#Cc1ccc([C@H]2[C@H](CO)N3C(=O)CN(C(=O)c4cccc(F)c4)C[C@@H]23)cc1
7) C[C@@H]1CN([C@H](C)CO)C(=O)c2cc(NC(=O)Nc3ccc(C(F)(F)F)cc3)ccc2O[C@@H](C)CCCCO[C@@H]1CN(C)Cc1ccc(C(=O)O)cc1
8) C[C@@H]1CN([C@@H](C)CO)C(=O)c2cccc(NC(=O)C3CC3)c2O[C@@H]1CN(C)S(=O)(=O)c1ccc(F)cc1
9) COc1ccc(-c2ccc(C3[C@H]4CNC[C@@H]3N4Cc3nccs3)cc2)cc1 (stereo partly specified)
10) COCC(=O)Nc1ccc2c(c1)OC[C@H](C)N(C)C[C@H](C)[C@@H](OC)CN(C)C2=O

assay / entry | 6 | 7 | 8 | 9 | 10
rRNA inh HTS | 3 | 1 | -4 | 0 | 3
rRNA inh HTS OD600 | -2 | -3 | -3 | -1 | 15
AF4-AF9 inh | -1.7 | 1.5 | -1.1 | 3.0 | -4.2
rRNA inh HTS RFP | -2.9 | 1.2 | -0.9 | -2.2 | 1.6

11) CCNC(=O)C[C@H]1CC[C@@H]2[C@H](COC[C@H](O)CN2C(=O)Nc2ccc(C(F)(F)F)cc2)O1
12) N#C[C@H]1[C@H](c2ccc(-c3ccc(F)cc3)cc2)[C@H](CO)N1c1nc(-c2ccccc2)cs1
13) COc1ccccc1CN1[C@H](CO)[C@H]2c3ccccc3N(C(=O)C3CCOCC3)C[C@H]21
14) O=C(Nc1cccc(F)c1)N1CC(=O)N2[C@H](CO)[C@H](c3ccc(-c4ccccc4)cc3)[C@@H]2C1
15) O=C(c1cccnc1)N1CC(=O)N2[C@H](C1)[C@H](c1ccc(-c3ccc(F)cc3)cc1)[C@@H]2CO

assay / entry | 11 | 12 | 13 | 14 | 15
rRNA inh HTS | 4 | -5 | -2 | -21 | -1
rRNA inh HTS OD600 | 6 | 5 | -2 | -62 | 2
AF4-AF9 inh | -1.4 | 0.8 | 1.0 | 2.0 | 31*
rRNA inh HTS RFP | -5.4 | 2.7 | -0.9 | 9.8 | -2.0

# 3 structures from above, sorted by molecular weight, low to high:
15) O=C(c1cccnc1)N1CC(=O)N2[C@H](C1)[C@H](c1ccc(-c3ccc(F)cc3)cc1)[C@@H]2CO
11) CCNC(=O)C[C@H]1CC[C@@H]2[C@H](COC[C@H](O)CN2C(=O)Nc2ccc(C(F)(F)F)cc2)O1
7) C[C@@H]1CN([C@H](C)CO)C(=O)c2cc(NC(=O)Nc3ccc(C(F)(F)F)cc3)ccc2O[C@@H](C)CCCCO[C@@H]1CN(C)Cc1ccc(C(=O)O)cc1

assay / entry | 15 | 11 | 7
rRNA inh HTS | -1 | 4 | 1
rRNA inh HTS OD600 | 2 | 6 | -3
AF4-AF9 inh | 31* | -1.4 | 1.5
rRNA inh HTS RFP | -2.0 | -5.4 | 1.2

# Later entries
16) O=C(C[C@H]1C=C[C@@H](NC(=O)CC2CC2)[C@@H](CO)O1)NCc1ccc(-c2ccccc2)cc1
17) C[C@H](CO)N1C[C@H](C)[C@H](CN(C)Cc2cccc(C(=O)O)c2)Oc2ncc(-c3ccccc3F)cc2C1=O
18) N#C[C@@H]1[C@H](c2ccc(C3=CCCC3)cc2)[C@@H](CO)N1c1nc(-c2ccccc2)cs1
19) O=C(C[C@@H]1C[C@H]2c3cc(NS(=O)(=O)c4ccc(F)cc4)ccc3O[C@H]2[C@@H](CO)O1)N1CCOCC1
20) Cc1noc(C)c1NC(=O)Nc1ccc2c(c1)C(=O)N([C@@H](C)CO)C[C@@H](C)[C@@H](CN(C)S(=O)(=O)c1ccc(F)cc1)OCCCC[C@@H](C)O2

assay / entry | 16 | 17 | 18 | 19 | 20
rRNA inh HTS | -7 | -2 | -2 | 0 | -4
rRNA inh HTS OD600 | -10 | 4 | -17 | -2 | 2
AF4-AF9 inh | -7.2 | -8.3 | 0.4 | -1.0 | 3.5
rRNA inh HTS RFP | 0.2 | 5.0 | 3.3 | -1.5 | 0.5

21) COc1ccc2c3c([nH]c2c1)[C@H](CO)N(Cc1ccccc1F)CC31CN(C(=O)C2CCOCC2)C1
22) N#C[C@H]1[C@@H](c2ccccc2C2=CCCCC2)[C@@H](CO)N1C(=O)NC1CCCCC1
23) COc1ccc(S(=O)(=O)Nc2ccc3c(c2)C(=O)N(C)C[C@H](OC)[C@H](C)CN[C@@H](C)CO3)cc1
24) CC(C)C#Cc1ccc([C@@H]2[C@H](CO)N3C(=O)CN(C(=O)NC4CCCCC4)C[C@@H]23)cc1
25) CO[C@H]1CN(C)C(=O)c2cc(NC(=O)C3CC3)ccc2OC[C@@H](C)N(C(=O)Cc2ccccn2)C[C@@H]1C

assay / entry | 21 | 22 | 23 | 24 | 25
rRNA inh HTS | 2 | -2 | 3 | 3 | 1
rRNA inh HTS OD600 | 0 | 8 | -1 | -1 | -2
AF4-AF9 inh | 0.7 | -19 | 0.8 | -3.5 | -0.6
rRNA inh HTS RFP | -0.2 | 2.8 | -2.5 | 4.1 | -0.9

# With a hit mark in AF4-AF9 inh, among the entries above:
15) O=C(c1cccnc1)N1CC(=O)N2[C@H](C1)[C@H](c1ccc(-c3ccc(F)cc3)cc1)[C@@H]2CO

assay / entry | 15
rRNA inh HTS | -1
rRNA inh HTS OD600 | 2
AF4-AF9 inh | 31*
rRNA inh HTS RFP | -2.0

# Next structures follow:
26) O=C(NCC[C@H]1CC[C@@H](NS(=O)(=O)c2ccc(F)cc2)[C@H](CO)O1)c1ccccc1F
27) O=C(CC1CC1)N1CC(=O)N2[C@H](CO)[C@H](c3ccc(C#Cc4ccccc4)cc3)[C@@H]2C1
28) O=C(C[C@@H]1C=C[C@@H](NC(=O)Nc2ccccc2F)[C@H](CO)O1)NCc1ccccc1
29) C[C@H]1CN([C@@H](C)CO)C(=O)Cc2cc(NC(=O)Cc3ccccc3)ccc2O[C@@H]1CN(C)C(=O)Nc1ccc2c(c1)OCO2
30) O=C(c1ccccc1F)N1CC(=O)N2[C@H](C1)[C@H](c1ccc(-c3ccccc3)cc1)[C@@H]2CO

assay / entry | 26 | 27 | 28 | 29 | 30
rRNA inh HTS | 1 | -23 | 0 | 5 | -1
rRNA inh HTS OD600 | -2 | -58 | 0 | 13 | -8
AF4-AF9 inh | -2.3 | -2.0 | -2.2 | -1.2 | 4.3
rRNA inh HTS RFP | 0.7 | 12 | -1.9 | -2.8 | -1.7

31) CCCC(=O)N1CC2(C1)CN(Cc1nccs1)[C@@H](CO)c1[nH]c3cc(OC)ccc3c12
32) O=C(Nc1ccccc1)N1CC(=O)N2[C@@H](CO)[C@H](c3ccc(C#CC4CC4)cc3)[C@@H]2C1
33) CCC(=O)Nc1ccc2c(c1)C(=O)N(C)[C@H]1CC[C@H](CC(=O)NCCc3ccncc3)O[C@H]1CO2
34) C/C=C/c1ccc([C@H]2[C@@H](CO)N(C(C)=O)[C@@H]2CNC(=O)NCCC)cc1
35) O=C(Nc1ccc(F)cc1)N1CC(=O)N2[C@@H](CO)[C@@H](c3ccc(Br)cc3)[C@@H]2C1

assay / entry | 31 | 32 | 33 | 34 | 35
rRNA inh HTS | -1 | -2 | 5 | 1 | -3
rRNA inh HTS OD600 | 1 | -17 | 6 | 11 | 10
AF4-AF9 inh | -0.5 | 1.0 | -1.3 | -2.1 | -2.2
rRNA inh HTS RFP | 3.2 | -2.3 | -1.2 | -3.7 | 1.1

36) C[C@@H]1CN([C@H](C)CO)C(=O)Cc2cc(NS(=O)(=O)c3ccc(F)cc3)ccc2O[C@H]1CN(C)Cc1ccncc1
37) O=C(c1ccc2c(c1)OCO2)N1CC(=O)N2[C@H](C1)[C@H](c1ccc(-c3ccccc3)cc1)[C@@H]2CO
38) O=C(C1CCCC1)N1CC[C@@H]2[C@H]1c1cc(Br)ccc1N[C@@H]2CO
39) CN(C)C(=O)C[C@@H]1CC[C@@H]2[C@@H](COc3ccc(NC(=O)C4CCC4)cc3C(=O)N2C)O1
40) C[C@H](CO)N1C[C@H](C)[C@H](CN(C)Cc2ccc(Cl)c(Cl)c2)Oc2ccc(NC(=O)c3ccncc3)cc2C1=O

assay / entry | 36 | 37 | 38 | 39 | 40
rRNA inh HTS | -1 | 2 | -5 | -1 | -31
rRNA inh HTS OD600 | 0 | -6 | -6 | 11 | -63
AF4-AF9 inh | -3.5 | 4.7 | -1.5 | -1.8 | 4.6
rRNA inh HTS RFP | -2.0 | -1.1 | 3.5 | 1.7 | 2.7

# Among those listed so far, these contain a CF3 group:
7) C[C@@H]1CN([C@H](C)CO)C(=O)c2cc(NC(=O)Nc3ccc(C(F)(F)F)cc3)ccc2O[C@@H](C)CCCCO[C@@H]1CN(C)Cc1ccc(C(=O)O)cc1
11) CCNC(=O)C[C@H]1CC[C@@H]2[C@H](COC[C@H](O)CN2C(=O)Nc2ccc(C(F)(F)F)cc2)O1

assay / entry | 7 | 11
rRNA inh HTS | 1 | 4
rRNA inh HTS OD600 | -3 | 6
AF4-AF9 inh | 1.5 | -1.4
rRNA inh HTS RFP | 1.2 | -5.4

# Next section.
41) CC(C)NC(=O)N1Cc2cc(C(=O)NC3CCC3)nc(-c3cccc(-c4cccnc4)c3)c2[C@@H]1CCO
42) COc1ccc2c3c(n(C)c2c1)[C@H](CO)N(Cc1cccnc1)CC31CCN(Cc2cccnc2)CC1
43) O=C(NCC[C@@H]1CC[C@H](NS(=O)(=O)c2ccc(Cl)cc2)[C@@H](CO)O1)Nc1ccc(F)cc1
44) COc1ccc(C#Cc2ccc([C@H]3[C@H]4CN(C(=O)c5ccccc5)CC(=O)N4[C@H]3CO)cc2)cc1
45) COc1cccc(-c2ccc3c(c2)[C@H]2[C@H](CCN2C(=O)C2CCCC2)[C@H](CO)N3)c1

assay / entry | 41 | 42 | 43 | 44 | 45
rRNA inh HTS | -5 | -3 | -2 | 4 | -2
rRNA inh HTS OD600 | -17 | 7 | -13 | -3 | -19
AF4-AF9 inh | 3.2 | 14 | 18 | 1.8 | 9.4
rRNA inh HTS RFP | 3.2 | 0.7 | 5.3 | 20 | 23

46) O=C1CN(S(=O)(=O)Cc2ccccc2)C[C@H]2[C@@H](c3ccc(C#CCC4CCCC4)cc3)[C@@H](CO)N12
47) CCNC(=O)[C@H]1[C@H](CO)[C@H]2Cn3c(ccc(-c4ccccc4F)c3=O)[C@@H]1N2S(C)(=O)=O
48) C[C@@H]1CN([C@@H](C)CO)C(=O)Cc2cc(NC(=O)CCCN(C)C)ccc2O[C@@H]1CN(C)CC1CCCCC1
49) C[C@H](CO)N1C[C@H](C)[C@@H](CN(C)S(=O)(=O)c2cccs2)OCCCC[C@H](C)Oc2ccc(NS(=O)(=O)c3ccccc3)cc2C1=O
50) CC(C)c1cn(CC[C@@H]2CC[C@@H](NC(=O)C3CCOCC3)[C@@H](CO)O2)nn1

assay / entry | 46 | 47 | 48 | 49 | 50
rRNA inh HTS | 5 | 5 | 8 | -3 | 5
rRNA inh HTS OD600 | -3 | 7 | 19 | 5 | 3
AF4-AF9 inh | -1.6 | -3.2 | 0.2 | -8.9 | -2.8
rRNA inh HTS RFP | 3.6 | -3.7 | -2.2 | -0.2 | -1.0

51) Cc1noc(C)c1NC(=O)N(C)C[C@H]1OCCCC[C@H](C)Oc2ccc(NS(=O)(=O)c3ccccc3)cc2C(=O)N([C@@H](C)CO)C[C@@H]1C
52) COc1ccc(-c2ccc3c(c2)[C@@H]2[C@@H](CCN2Cc2ccccc2F)[C@H](CO)N3)cc1
53) N#C[C@@H]1[C@H](c2ccccc2-c2ccccc2)[C@H](CO)N1C(=O)NC1CCCCC1
54) CCC(=O)N1CC(=O)N2[C@@H](CO)[C@H](c3ccc(C#CCc4ccccc4)cc3)[C@@H]2C1
55) C[C@@H]1CN([C@H](C)CO)C(=O)Cc2cc(NC(=O)CCN3CCOCC3)ccc2O[C@@H]1CN(C)C(=O)NC1CCCCC1
56) C[C@@H]1CCCCO[C@H](CN(C)Cc2ccc3c(c2)OCO3)[C@H](C)CN([C@H](C)CO)C(=O)c2cc(NS(=O)(=O)c3ccccc3)ccc2O1
57) COc1ccccc1NC(=O)N1CC(=O)N2[C@H](CO)[C@@H](c3ccc(C#Cc4ccccc4)cc3)[C@@H]2C1

assay / entry | 51 | 52 | 53 | 54 | 55 | 56 | 57
rRNA inh HTS | -5 | -33 | -4 | 1 | 4 | 3 | 0
rRNA inh HTS OD600 | -3 | -63 | -24 | 4 | 6 | -25 | -5
AF4-AF9 inh | -1.0 | 26* | 0.3 | -1.9 | 2.3 | 12 | -2.2
rRNA inh HTS RFP | -0.2 | 9.9 | -2.7 | 5.6 | -1.0 | 1.8 | -0.7

# Source: PubChem BioAssay (Broad Institute)
